Compound activity deposited in PubChem by several laboratories.
CSC inhib: blocks cancer stem cells; cancer stem cell-like cells viability, luminescence; inhibition, % at 7.5 µM; 1.1% of 300,000 active; AID 2717;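 active = mean at 75% or more and at least half the replicates too; inconclusive = mean and replicates disagree; tested in HMLE shEcad cells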;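 note: 0% = median of negative and 100% = median of positive control wells; the first replicate is given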
PABP FP inh: PABP-poly(A) binding inhibition; P11940; PABP-poly(A) RNA binding, fluorescence polarization; inhibition, % at 35 µM; 1% of 290,000 active;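 active = 50% or more with normal probe brightness, or confirmed in later tests; inconclusive = above 50% with abnormal brightness, or retests that disagree; inactive = below 50% or failed in later tests; about a fifth of its hits are not listed in these tables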;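 note: calls also rest on retests at 20 µM and on dose response follow-up; controls were probe without protein and protein plus probe with vehicle; some compounds called inactive have numbers as strong as hits; many hits fall short of the cut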
Target sequence (P11940 whole entry, looked up): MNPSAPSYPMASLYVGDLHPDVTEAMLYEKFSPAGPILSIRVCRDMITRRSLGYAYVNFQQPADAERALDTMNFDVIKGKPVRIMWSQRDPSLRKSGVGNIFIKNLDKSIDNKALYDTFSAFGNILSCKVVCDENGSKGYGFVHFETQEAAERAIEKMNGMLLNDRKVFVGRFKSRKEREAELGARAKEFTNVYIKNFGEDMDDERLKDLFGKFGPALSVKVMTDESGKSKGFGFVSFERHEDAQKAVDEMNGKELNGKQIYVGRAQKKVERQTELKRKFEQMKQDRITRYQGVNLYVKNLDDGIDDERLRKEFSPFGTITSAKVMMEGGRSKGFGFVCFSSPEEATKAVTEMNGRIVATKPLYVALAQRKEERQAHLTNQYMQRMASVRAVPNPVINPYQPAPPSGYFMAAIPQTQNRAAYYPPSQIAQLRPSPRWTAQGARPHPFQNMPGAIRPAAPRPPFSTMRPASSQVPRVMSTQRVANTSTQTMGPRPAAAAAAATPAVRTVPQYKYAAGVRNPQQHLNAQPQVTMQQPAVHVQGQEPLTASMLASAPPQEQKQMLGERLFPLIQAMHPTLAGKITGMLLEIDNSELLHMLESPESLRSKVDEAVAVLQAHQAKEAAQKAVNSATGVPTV
UUG fidelity: yeast start codon fidelity modulation | S. cerevisiae UUG-firefly luciferase reporter, luminescence/redox ratio | activity score, % at 18.7 µM | 0.13% of 350,000 active | AID 602363;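 active = replicate mean at a twofold rise or more, about +100% in these data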;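 note: firefly luciferase made from a UUG start codon reports start codon fidelity; reporter light over untreated wells divided by growth signal over untreated wells; some hits fall short of that in this replicate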
eIF4H FP inh: inhibitors of RNA binding by human eIF4H | AID 2012 | eIF4H fluorescence polarization binding assay | inhibition, % at 35 µM | 0.94% of 290,000 active;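 active = 50% or more with normal probe brightness, or confirmed in later tests; inconclusive = above 50% with abnormal brightness, or retests that disagree; inactive = below 50% or failed in later tests; about a fifth of its hits are not listed in these tables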;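 note: calls also rest on retests at 20 µM and on dose response follow-up; 0% = protein and probe with vehicle and 100% = probe without protein; strong numbers were not always called active; many hits fall short of the cut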
Env fusion inh: blocks HIV Env-driven cell-cell fusion; HeLa-JRFL Env/CEM21 cell fusion, luciferase; inhibition, % at 12.3 µM; 1.1% of 360,000 active; AID 651610;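 active = mean replicate inhibition score of at least 50 and every replicate individually at or above 50; inconclusive = only one of the two criteria met; inactive = mean below 50 and not all replicates reaching 50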;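 note: 0% = plate neutral controls and 100% = maraviroc near 300 nM; one replicate is shown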
Rce1 inhib: inhibitors of yeast Ras-converting enzyme | Q03530 | yeast membranes, quenched prenylated peptide cleavage fluorescence | calls only | 0.27% of 290,000 active;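 active = fall in fluorescence gain of 50% or more versus controls, with final raw signal at or below 3038400; inconclusive = same 50% fall but final raw signal above 3038400; inactive = fall in fluorescence gain under 50%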;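 note: plate controls were neutral control wells for no effect and wells lacking membranes for full effect; tested at 10 µM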
MT1-MMP act inh: blocks activation of human MT1-MMP. AID 651647. GFP/RFP ratio change, % at 20 µM. HT1080 RFP-PRO-GFP cells, GFP/RFP ratio fluorescence, overnight; percent of plate control window, DMSO zero. 0.061% of 360,000 active. P50281;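 active = GFP/RFP ratio change of at least 30% with cell ATP level not reduced by more than half and red fluorescence within 50% of control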; note: strong numbers were not always called active
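system = RFP-PRO-GFP reporter HT1080 cells | dosing = 20 µM single dose, 1% DMSO | timing = overnight cell settling, then overnight compound exposure, 37 °C, 5% CO2 | read-out basis = GFP/RFP fluorescence ratio | controls = DMSO and RFP-L50D-GFP cell wells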
MT1-MMP act inh RFP: further read-out of MT1-MMP act inh, marked with its call; RFP signal change, %; measured here: RFP expression control read;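 0 = vehicle wells; hits needed this value within 50% of zero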
Active calls of the source: *; i = inactive; ? = inconclusive; . = not tested or not shown; [ ] = dose if it differs, or a comment. Not all compounds are listed; rates above refer to the full screens.

Screens in order – CSC inhib	PABP FP inh	UUG fidelity	eIF4H FP inh	Env fusion inh	Rce1 inhib	MT1-MMP act inh	MT1-MMP act inh RFP
Cc1ccc(CN2CCSc3ccc(C(=O)N4CCOCC4)cc32)cc1
  17	5	-22	-12	.	i	-4	1
CCOC(=O)c1[nH]c2ccc(OCC)cc2c1NC(=O)CN1CCN(c2ccccn2)CC1
  -8	1	-9	-8	.	i	4	-7
Cc1noc(C)c1S(=O)(=O)N1CCN(c2ccccc2)CC1
  -9	4	-8	7	11	i	2	3
CNC(=O)c1cc2c(s1)-c1ccccc1CC2
  14	-2	.	-2	-40	?	-9	-1
CN1CCC(OC(c2ccccc2)c2ccccc2)CC1
  -6	5	-1	8	.	i	3	4
O=S(=O)(c1ccccc1)N1N=C(c2ccc(Cl)cc2)CC1c1ccco1 (configuration not stated)
  .	.	-16	.	13	.	-17	-22
O=C(Cn1cnc2ccccc2c1=O)Nc1cccc(S(=O)(=O)N2CCCCC2)c1
  -8	7	-1	-1	-1	i	1	-6
Cc1cccc(C)c1Nc1c(-c2ccccc2O)nc2ncccn12
  11	-3	.	-5	-13	i	6	5
CCCCCCn1nc(C(=O)OCC(=O)NC2CCS(=O)(=O)C2)c2ccccc2c1=O (configuration not stated)
  -3	20	.	-13	-9	i	4	4
O=C(c1cc2cc([N+](=O)[O-])ccc2oc1=O)N1CCN(c2ncccn2)CC1
  1	0	-4	9	-15	i	-1	-3

An excerpt from above in order of the Env fusion inh value, descending:
Compound	Env fusion inh
O=S(=O)(c1ccccc1)N1N=C(c2ccc(Cl)cc2)CC1c1ccco1 (configuration not stated)	13
O=C(Cn1cnc2ccccc2c1=O)Nc1cccc(S(=O)(=O)N2CCCCC2)c1	-1
CCCCCCn1nc(C(=O)OCC(=O)NC2CCS(=O)(=O)C2)c2ccccc2c1=O (configuration not stated)	-9

The results go on:
Screens in order – CSC inhib	PABP FP inh	UUG fidelity	eIF4H FP inh	Env fusion inh	Rce1 inhib	MT1-MMP act inh	MT1-MMP act inh RFP
CC(Oc1ccc(F)cc1F)C(=O)/C=C/N(C)C (configuration not stated)
  12	4	-15	9	-106	i	-1	0
O=C(O)CCc1nn2c3ccccc3n(Cc3ccccc3F)c2nc1=O
  6	0	-7	1	0	i	-2	2
CC1CCN(S(=O)(=O)c2cccc(C(=O)N(C)C3(C)CCS(=O)(=O)C3)c2)CC1 (configuration not stated)
  16	3	-17	-4	-6	i	2	1
CCCCN(CCCC)S(=O)(=O)c1ccc(NC(=O)c2cccs2)cc1
  .	-2	-10	-1	17	i	-18	-23
CCOc1ccc2nc(NCCNC(=O)C(C)C)c(C)cc2c1
  8	-1	-24	-4	.	i	-4	-2
Cn1c(SCC(=O)c2ccc(F)cc2)nnc1-c1cccnc1
  -3	-8	.	-1	0	.	8	5
Cc1[nH]c2ccccc2c1C(=O)C(=O)N1c2ccccc2CC1C (configuration not stated)
  8	-2	4	-4	.	i	2	-13
Cn1nccc1C(=O)Nc1ccc(Cl)cc1
  1	4	-16	-4	.	i	0	1
CC(=O)N1N=C(c2ccncc2)OC12CCCCCC2
  -1	-2	-13	-4	.	i	3	-1
O=C(NC1CCN(Cc2ccccc2)CC1)c1c(Cl)cccc1Cl
  -2	-1	-4	3	-4	i	-2	-2
CC(=O)Nc1ccc(S(=O)(=O)N(CC(=O)NCC2CCCO2)Cc2ccccc2Cl)cc1 (configuration not stated)
  .	.	-7	.	-14	.	3	7
Cc1ccc2c(c1)CN1CN2Cc2cc(C)ccc21
  -1	-3	4	-2	-6	i	15	9
CCOc1ccc(C2=CSC3=NCCN23)cc1Cl
  -15	-40	-1	-2	3	i	-3	-4
COC(=O)c1cc(NC(=O)c2nn(C)c(=O)c3ccccc23)cc(C(=O)OC)c1
  -6	-12	.	-8	0	i	0	-3
CCOc1ccc(CNC(=O)c2ccc(Sc3ccc(Cl)cc3)c(NC(C)=O)c2)cc1OC
  13	1	.	-10	32	i	0	-8
COc1ccccc1OCCNC(=O)C1CC(=O)N(c2ccc3c(c2)OCCO3)C1 (configuration not stated)
  -7	.	.	.	5	i	1	-1
O=C(COC(=O)C1COc2ccccc2O1)c1ccccc1 (configuration not stated)
  .	.	-22	.	-89	.	-5	-2
OCCNc1nc(-c2ccccc2)c2cc(Cl)ccc2n1
  -62	-6	-9	-3	-18	i	-5	-6
COc1ccc(OCCC(=O)N2CCCCC2)cc1
  -11	-12	-19	-9	-68	i	1	3
Cc1cc(-n2nc(C)cc2C)n2nc(C)c(-c3ccc(Cl)cc3)c2n1
  -1	-3	-10	-12	-28	i	4	6
COc1ccc(-c2cc(C(F)(F)F)n3ncc(C(=O)O)c3n2)cc1OC
  -18	2	.	-3	.	i	4	1
COc1ccc(C(=O)Nn2c(SCC(=O)c3ccc(Cl)cc3)nc3ccccc3c2=O)cc1
  8	9	-71	5	-23	i	7	2
O=Cc1ccc(C(=O)OCC(=O)N2CCCC2)cc1
  -15	9	8	-4	-22	i	1	4
COc1ccc2c(c1)OC[C@H]1[C@@H]2N2C(=O)CNC(=O)[C@@]2(C)[C@H]1c1ccccc1
  -3	.	-16	.	-2	.	5	1
CC(Oc1ccc(Cl)cc1)c1ccn[nH]1 (configuration not stated)
  4	-2	-11	-5	1	i	-4	1
CC1(C)Cc2cccc(C(=O)NCc3ccco3)c2O1
  -1	0	-18	-2	4	i	-3	-5
CCN(CC)c1ccc(NC(=O)c2c(OC)cccc2OC)c(C)c1
  -20	-6	-18	6	-45	i	-11	-4
COc1cccc(C2CC(c3c(F)cccc3Cl)n3nc(N)nc3N2)c1 (configuration not stated)
  -1	-7	-51	-2	.	i	2	3
Nc1ccc(S(=O)(=O)NCC2CCCCO2)cc1 (configuration not stated)
  .	.	-18	.	?	.	2	4
CCn1cc(S(=O)(=O)c2ccc(C)cc2)c(=O)c2cc(OC)ccc21
  3	5	-1	5	2	i	-3	-4
O=C(CCCc1ccccc1)Nc1cccc2c1CCCC2
  -4	0	-5	2	.	i	2	0
CC(=O)Nc1cccc(NC(=O)CSc2ncc(C(=O)Nc3ccccc3)c(=O)n2C)c1
  21	.	.	.	.	i	0	-2
O=C(CNC(=O)c1ccc(Cl)cc1Cl)OC1CCCCC1=O (configuration not stated)
  -13	.	-6	.	2	.	-1	5
Cc1ccc2nc(CSc3nc(C)ccc3C#N)[nH]c2c1
  -9	9	-69	-8	.	i	2	3
O=S(=O)(N[C@@H]1CC[C@H](CCNS(=O)(=O)c2ccccc2Cl)O[C@@H]1CO)c1ccccc1
  .	.	15	.	2[16.7 µM]	.	-2	3
COc1cccc(C(=O)CSc2nnc(CNc3nc(-c4ccccc4)cs3)n2C)c1
  -6	-8	-5	-10	.	i	8	3
CCc1nn(CC(=O)NC(C)CCc2ccccc2)c(=O)c2cc3cc(F)ccc3n12 (configuration not stated)
  15	-5	-17	9	-2	i	-1	-2
CCn1c(CC(=O)Nc2ccccc2F)nnc1SCC(=O)Nc1nncs1
  -13	-2	-4	-20	0	i	-3	-3
CCCCCCCCS(=O)c1sc2nc3c(cc2c1N)CCCC3 (configuration not stated)
  -12	.	-18	.	-16	i	1	-2
COc1ccc(CC(=O)NCCc2ccc3c(c2)OCO3)cc1OC
  .	.	-19	.	3	.	4	0
CC(C)(C)C1CCC(=NNC(=O)c2ccc(Br)o2)CC1 (configuration not stated)
  1	2	.	3	15	i	1	3
O=C(Nc1cccc(F)c1)c1ccc(Br)o1
  -4	6	-16	-8	-26	i	6	-5
O=C(c1ccccc1NS(=O)(=O)c1ccc2c(c1)OCCO2)N1CCOCC1
  1	2	0	3	.	.	2	6
Cc1cc([N+](=O)[O-])ccc1NC(=O)CSc1nccc(=O)[nH]1
  5	-3	-26	-4	-4	i	7	5
Cc1cc(SCc2cccc(Cl)c2)nc(=O)[nH]1
  -2	-1	-20	7	4	i	-1	0
CCc1ccc(NC(=O)C(=O)NCC2CCCN2S(=O)(=O)c2ccccc2)cc1 (configuration not stated)
  6	.	-5	.	22	i	-2	-12
CCc1nnc(NC(=O)c2cc(Cl)ccn2)s1
  17	12	-51	45	-31	i	9	3
COc1cc(NC(=O)C2CCN(S(=O)(=O)c3cccnc3)CC2)cc(OC)c1OC
  -4	13	-16	4	.	i	4	0
O=C(O)Cn1nnc2ccccc21
  4	-6	13	-1	-11	i	6	3
CC(=O)Nc1cnc(NC(=O)c2cccc(F)c2)cc1C
  0	4	-27	8	-102	i	2	3

Later entries
Screens in order – CSC inhib	PABP FP inh	UUG fidelity	eIF4H FP inh	Env fusion inh	Rce1 inhib	MT1-MMP act inh	MT1-MMP act inh RFP
CSCC(=O)NC1CCCc2c1cnn2-c1ccc(C)c(C)c1 (configuration not stated)
  -13	2	-5	-1	-18	i	-2	-5
O=C(COC(=O)c1cccc(F)c1)Nc1cccc(S(=O)(=O)N2CCCCC2)c1
  .	.	-11	.	-9	.	-1	3
COc1cccc(CCNC(=O)c2ccc(OC)c(OC3CCN(C(C)C)CC3)c2)c1
  -21	9	-7	5	-8	i	-2	0
O=c1cc(-c2ccccc2)oc2cc(O)cc(O)c12
  -5	.	-18	.	.	.	-1	-12
CN(c1ccccc1)S(=O)(=O)c1ccc(Cl)c(C(=O)OCC(N)=O)c1
  -3	6	-2	3	16	i	-1	5
CCOC(=O)c1c(S(=O)(=O)NCCc2ccccc2)c(C)n(C)c1C
  -7	-3	3	-6	-3	i	-5	-5
CC(C)(C)CC(C)(C)NCC(=O)Nc1c2c(nc3ccccc13)CCC2
  -2	9	-9	-3	11	i	-1	-1
Cc1ccc(-c2ccc(=O)n(CCC(=O)NCc3ccccn3)n2)cc1
  -9	-1	-27	5	.	i	-1	-2
NC(c1csc(Nc2ccc(C(=O)c3ccccc3)cc2)n1)c1ccccc1Cl (configuration not stated)
  .	.	-25	.	29	.	-19	-28
Cc1ccc([C@H]2N[C@]3(CCCN(Cc4ccc(C(F)(F)F)cc4)C3=O)[C@H]3C(=O)N(Cc4ccccc4)C(=O)[C@@H]23)cc1
  .	.	0	.	-115	.	6	-7
Cc1ccc(N(CC(O)CN2CCOCC2)S(=O)(=O)c2ccc([N+](=O)[O-])cc2)cc1 (configuration not stated)
  3	0	-13	-2	-9	.	2	4
CC(C)CNC(=S)N1CCC(c2nc(-c3ccc(F)cc3)no2)CC1
  6	2	-22	-1	30	i	1	-22
Cc1ccc(N(C(=O)c2snc(C(N)=O)c2N)C(C(=O)NCC2CCCO2)c2ccc3ncccc3c2)cc1 (configuration not stated)
  .	6	-5	-7	-2	i	1	2
O=S(=O)(c1ccc(Cl)cc1)N1CCC(n2cccc2)CC1
  -11	5	.	4	-6	i	0	1
COc1ccc(/C=N/N=C/c2c[nH]c(=O)c(C#N)c2Nc2ccccc2)cc1
  -2	5	-16	-6	2	i	2	3
CCOC(=O)C1(CCCc2ccccc2)CCN(C(=O)c2cncs2)CC1
  8	1	16	-8	18	i	-11	-6
COc1ccc(CNC(=O)C[C@H]2C[C@H](C(=O)N(C(C)C)C(C)C)[C@@]3(C)c4[nH]c5cc(CCC(=O)N(C)C)ccc5c4CCN3C2=O)cc1OC
  .	.	5	.	-2	.	1	2
COc1ccc(NC(=O)CN(C)C(=O)C2CSC3(C)CCC(=O)N23)cc1 (configuration not stated)
  -5	.	-4	.	0	.	-2	0
